KCNQ2 enhance: potentiators of rat KCNQ2 potassium channel; CHO-K1 KCNQ2, FluxOR thallium flux fluorescence; active compounds read high; B-score at 10 µM; 310,000 compounds, 0.54% hits; AID 2239;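 active = fluorescence ratio B-score at least 3 SD of library B-scores, with initial fluorescence B-score within 3 SD, cut at about 5.3 in these data; same plate scores as AID 2156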;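 also: B-score of peak minus minimum over baseline fluorescence ratio after K+ and Tl+ stimulus; positive B-score means potentiation of KCNQ2 with more thallium influx and brighter signal; only the inactives scoring about 0 or higher are listed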
Target sequence (O88943 whole entry, looked up): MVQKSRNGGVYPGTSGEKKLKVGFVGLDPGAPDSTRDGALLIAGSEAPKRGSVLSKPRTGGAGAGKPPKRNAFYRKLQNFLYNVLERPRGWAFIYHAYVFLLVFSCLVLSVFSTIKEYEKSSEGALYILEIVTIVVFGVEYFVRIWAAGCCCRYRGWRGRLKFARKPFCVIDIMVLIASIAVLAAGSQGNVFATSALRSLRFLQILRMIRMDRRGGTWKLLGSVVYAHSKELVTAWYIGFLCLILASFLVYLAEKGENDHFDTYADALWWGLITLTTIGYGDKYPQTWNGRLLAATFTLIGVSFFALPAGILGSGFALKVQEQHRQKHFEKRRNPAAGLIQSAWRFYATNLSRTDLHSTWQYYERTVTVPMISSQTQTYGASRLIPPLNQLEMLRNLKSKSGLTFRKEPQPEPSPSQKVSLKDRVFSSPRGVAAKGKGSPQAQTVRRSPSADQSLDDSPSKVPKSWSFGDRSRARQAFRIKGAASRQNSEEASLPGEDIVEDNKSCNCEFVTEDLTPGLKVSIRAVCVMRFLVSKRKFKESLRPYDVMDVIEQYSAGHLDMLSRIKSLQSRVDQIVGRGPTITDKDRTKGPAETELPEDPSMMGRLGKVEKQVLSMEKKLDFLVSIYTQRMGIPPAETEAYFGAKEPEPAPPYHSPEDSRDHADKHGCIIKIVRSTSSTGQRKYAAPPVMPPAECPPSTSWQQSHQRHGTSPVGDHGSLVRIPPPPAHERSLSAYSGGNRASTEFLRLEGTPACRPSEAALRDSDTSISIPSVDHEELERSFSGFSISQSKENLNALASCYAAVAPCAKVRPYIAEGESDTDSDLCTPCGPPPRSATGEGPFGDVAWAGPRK
KCNQ2 enhance baseline: recorded beside KCNQ2 enhance, whose call it bears; B-score; compound at 10 µM; measured here: initial fluorescence intensity artifact check;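 brightness before thallium and not channel activity; 0 = typical well and far values either way flag optical interference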
An asterisk follows results filed as active.

SMILES | KCNQ2 enhance | KCNQ2 enhance baseline
CCCn1nnc(NC(=O)COc2ccc(C3CCCCC3)cc2)n1 | 1.7 | 0.58
N#CC1=C(N)OC2=C(C(=O)CCC2)C1C1CC=CCC1 (centres undefined) | 0.18 | -1.2
O=C(O)COCC(=O)Nc1ccccc1-c1ccccc1 | 0.16 | -0.08
CSc1nnc(C(C)(C)C)c(=O)n1/N=C/c1ccc(Cl)cc1 | 0.05 | 0.5
CNC(=O)CCCCCNS(=O)(=O)c1ccc(C)cc1 | 0.46 | -0.17
COC(=O)c1ccc(CN2C(=O)NC3(CCCc4ccccc43)C2=O)o1 (centres undefined) | 1.6 | -0.02
COc1ccc(NC(=O)c2ccc(NC(=O)c3cccs3)cc2)cc1 | 1.3 | -0.39
CCN(CC)S(=O)(=O)c1ccc(Cl)c(C(=O)NC2CCN(Cc3ccccc3)CC2)c1 | 0.95 | 1.8
CC(=O)Nc1cccc(NC(=O)c2cccc(-c3ccc(O)cc3)c2)c1 | 1.4 | -0.46
O=S(=O)(c1cccc(Br)c1)N1CCN(CCc2ccccc2)CC1 | 0.04 | 0.37
O=C(Nc1cc2c(cc1Br)OCCO2)c1cccs1 | 0.42 | -0.24
Nc1ncnc2c1ncn2C1OC(CO)C(O)C1O (centres undefined) | 1.2 | -0.02
CCCCc1c(O)nc(SCC(=O)N2CCCCCC2)[nH]c1=O | 1.1 | -1.9
CCC(=O)Nc1cc(C)c(NC(=O)c2ccco2)cn1 | 0.7 | 0.85
O=c1[nH]cnc2c1ncn2[C@@H]1C[C@@H](O)[C@H](CO)O1 | 0.05 | -1.6
O=[N+]([O-])c1cc(C2Nc3cccc4cccc(c34)N2)ccc1Cl | 1.1 | 2.7
Cc1cc(C)n(S(=O)(=O)c2cccc([N+](=O)[O-])c2)n1 | 1.1 | 1.3
NS(=O)(=O)c1ccc2nc(NC(=O)c3ccncc3)sc2c1 | 0.49 | -0.62
CC(=O)c1cnc2nc(SCc3ccc(Cl)cc3)nn2c1C | 0.04 | 0.44
Cc1cc(-c2ccc(C(C)C)c(S(=O)(=O)Nc3cc(C)on3)c2)on1 | 0.04 | -2.4
CCOC(=O)C1=C(C)NC(C)=C(C(=O)OCC)C1c1ccco1 | 0.04 | 0.01
COc1ccccc1Nc1ncccc1[N+](=O)[O-] | 1.2 | 1.4
O=C(Nc1nncs1)C1c2ccccc2Oc2ccccc21 | 0.56 | -2
Cc1cccc(C)c1N(CC(=O)N/N=C/c1cc(Br)c(C)o1)S(C)(=O)=O | 0.27 | -1.1
CC(CNC(=O)c1ccc(-c2ccccc2)cc1)CN(C)C (centres undefined) | 1.3 | 1.2
SMILES | KCNQ2 enhance | KCNQ2 enhance baseline
Cc1ccc(CN2CCN(Cc3ccc(Oc4ncccn4)cc3)CC2CCO)cc1 (centres undefined) | 2.2 | 1.3
FC(F)(F)c1ccc(Oc2ccccc2Cl)nc1 | 2.1 | 0.11
COC(=O)c1cn(NC(=O)/C=C/c2cccc(OC)c2OC)c(=O)c2ccccc12 | 1.8 | -0.44
CNC(=O)c1ccc(-c2cc(C(F)(F)F)nn2C)s1 | 3.5 | -1.6
O=C(NCC[C@@H]1C[C@@H]2C=C[C@H]1C2)c1cc(COc2ccc(F)cc2F)on1 | 0.85 | -0.09
Cc1ccc(Nc2nc(-c3ccc(O)c(O)c3)cs2)nc1 | 4.6 | -0.96
CC(C)c1nc(Cl)c(C#N)c2c1CCC2 | 1.9 | -1.3
CCCCc1cc(=O)oc2c(C)c(OCc3nn[nH]n3)ccc12 | 0.43 | -0.48
CCOC(=O)C(Sc1ncc(C#N)c(N)n1)C(C)C (centres undefined) | 0.12 | 0.26
COc1cc2c(cc1OC)C(C)N(C(=O)Nc1ccccc1)CC2 (centres undefined) | 0.11 | -0.05
CSc1nc2c(c(C(F)(F)F)n1)CC(C)CC2 (centres undefined) | 0.87 | -1.8
CC1(c2nnc(-c3ccncc3)o2)CC(c2ccc(Cl)cc2)=NO1 (centres undefined) | 0.99 | -0.05
O=C(CSc1ccc(-c2ccc(F)cc2)nn1)NCc1ccco1 | 0.37 | 0.32
Cc1nn(-c2ccccc2)c(C)c1C=O | 1.2 | -1.2
CCN(CC(=O)Nc1c(F)cccc1F)C(=O)c1cc(S(=O)(=O)N2CCOCC2)ccc1N1CCCC1 | 1.6 | 0.23
CSc1cccc(NC(=O)CN(C)S(=O)(=O)c2cnc[nH]2)c1 | 0.01 | 0.32
C=CCc1cccc(C2Nc3ccccc3C(=O)N2O)c1O (centres undefined) | 0.48 | 0.37
CCOC(=O)CC1C(=O)NCCN1C(=O)c1sc2ccccc2c1Cl (centres undefined) | 1.5 | 0.95
CC[N+](CC)(CC)CCCCOc1ccc2c(c1)C(=O)c1cc(OCCCC[N+](CC)(CC)CC)ccc1-2 | 0.9 | -1.6
Cc1ccc(S(=O)(=O)NCCC(=O)Nc2cccc(S(N)(=O)=O)c2)cc1C | 0.41 | 1.2
CC1CCCCN1Cc1ccc(-c2nn[nH]n2)cc1 (centres undefined) | 0.25 | -3.4
CC(C)CN1C(=O)c2ccc(C(=O)Nc3ccc(O)cc3C(=O)O)cc2C1=O | 0.66 | 1.2
CC(=O)N1c2ccc(S(=O)(=O)N3CCC(C(=O)N4CCN(c5ccccc5F)CC4)CC3)cc2CC1C (centres undefined) | 2 | 0.42
Cc1ccc(S(=O)(=O)CCC(=O)OCC(=O)c2ccc(C)c(C)c2)cc1 | 2.3 | -1.3
Cc1ccc(NC(=O)Cn2c(=O)oc3ccccc32)cc1 | 1.6 | 0.6
SMILES | KCNQ2 enhance | KCNQ2 enhance baseline
Cc1noc(C)c1C(=O)N1CCN(Cc2ccc3c(c2)OCO3)CC1 | 1.4 | 1.4
O=C(CCc1ccccc1)NNC(=O)c1ccccn1 | 1.8 | 0.39
COc1ccc(C2c3c(oc4ccccc4c3=O)C(=O)N2c2ccccn2)cc1OC (centres undefined) | 0.97 | -1.8
COc1cccc(Nc2nc3ccc(C(=O)c4ccccc4)cc3n3cnnc23)c1 | 0.18 | -1.9
CCN(c1ccccc1)S(=O)(=O)c1ccc(OC)c(NC(=O)CNCC(C)O)c1 (centres undefined) | 1.5 | -0.85
CN(Cc1ccccc1)S(=O)(=O)c1ccc(OCC(=O)NCc2ccccn2)cc1 | 0.02 | -0.46
O=c1[nH]n2c(=O)c3c([nH]c2c1N=Nc1cccc(Cl)c1)CCC3 | 2.2 | -1.2
Nc1ccc2nc(-c3cccc(-c4nc5ccc(N)cc5[nH]4)c3)[nH]c2c1 | 0.54 | 1.7
CCN1C(=O)[C@H]2[C@@H](c3ccc(-c4ccccc4)cc3)N[C@@](CC(C)C)(C(=O)OC)[C@H]2C1=O | 0.34 | -0.42
CCN(CC)S(=O)(=O)c1ccc2[nH]c(=O)cc(C(=O)Nc3ccccc3N3CCCC3)c2c1 | 0.04 | -0.42
COc1ccc(-c2nnc(SCc3ncc(-c4ccccc4)o3)o2)cc1 | 0.15 | 0.28
Cc1ccc(N2C(=O)NC(NC(=O)C(C)(C)C)(C(F)(F)F)C2=O)cc1 (centres undefined) | 0.58 | 0.32
O=C(CSc1ccc(-c2cccc([N+](=O)[O-])c2)nn1)N1CCCCCC1 | 0.7 | 0.01
CCn1c(COC(=O)CNC(=O)c2ccccc2)nc2cc(S(=O)(=O)N(C)C)ccc21 | 1.4 | 2.3
CC1CCN(CC(=O)Nc2nn(-c3ccccc3)nc2C(N)=O)CC1 | 0.9 | -0.07
CC1=NN(c2nc(-c3ccc(C)cc3)cs2)C(=O)C1N=Nc1cccc(O)c1 (centres undefined) | 0.03 | -0.07
O=C(COC(=O)c1cc(S(=O)(=O)N2CCOCC2)ccc1O)NCCc1ccccc1 | 0.38 | 0.03
CN(C)CCN(Cc1ccccc1)C(=O)[C@H](Cc1ccccc1)N1C(=O)c2ccccc2C1=O | 0.91 | 0.03
FC(F)(F)c1cc(-c2ccco2)nc(-n2nnc3ccccc32)n1 | 0.08 | 1.1
Cc1cc(C)cc(NC(=O)CCC(=O)Nc2nnc(C(F)(F)F)s2)c1 | 0.65 | 0.03
OC[C@H](O)[C@H](O)[C@@H](O)[C@@H](O)[C@@H]1SC(c2ccccc2)=NN1c1ccccc1 | 0.87 | 0.84
Cc1ccc(Nc2cc(C)nc3nnnn23)cc1 | 1.8 | 0.58
CCOc1ccc(CN(CCC#N)C(=S)NC(=O)c2ccccc2)cc1 | 0.91 | -0.49
Cc1cccc2cc(C#N)c(SCC#N)nc12 | 2.4 | -0.26
C/C(=N\NC(=O)c1ccc(N2CCCC2=O)cc1)c1ccc(O)cc1O | 0.16 | 0.84
SMILES | KCNQ2 enhance | KCNQ2 enhance baseline
COc1ccc(OC)c(S(=O)(=O)N2CCCC(C(=O)NCCN3CCOCC3)C2)c1 (centres undefined) | 0.69 | -0.44
CCc1nnc(NC(=O)CSc2nnc(-c3ccc(O)cc3)n2C)s1 | 1.9 | 0.36
CN1CCN(C(=O)CCc2ncc(C(F)(F)F)cc2Cl)CC1 | 0.34 | 0.48
NC(=O)NCCN1CCN(c2ncc(C(F)(F)F)cc2Cl)CC1 | 0.05 | -0.49
COC(=O)CC1c2cc(OC)c(OC)cc2CC(=O)c2cc(OC)c(OC)cc21 (centres undefined) | 0.88 | 0.26
O=C(Cn1cnc2c(nnn2-c2cccc(Cl)c2)c1=O)N1CCCC1 | 0.03 | 2
CC(=O)Nc1ccc(Oc2cc(NC(C)=O)cc([N+](=O)[O-])c2)cc1 | 1.3 | -2.9
COC(=O)c1ccc(CNS(=O)(=O)c2ccc3ccccc3c2)cc1 | 0.37 | -1.2
CC(=O)c1c(N2CCOCC2)nc(=S)n(-c2ccccc2)c1C | 0.34 | -0.7
Cc1cccc(N(CC(=O)Nc2ccccc2F)S(C)(=O)=O)c1 | 0.51 | -0.51
CS(=O)(=O)N1CCN(c2ccccc2NC(=O)c2ccco2)CC1 | 1.5 | -0.03
NC(=O)C1(N2CCCCC2)CCN(CC(=O)Nc2ccc(Oc3ccccc3)cc2)CC1 | 0.6 | 0.77
CCN(CC)C(C)C(=O)NCC1(c2ccccc2)CCOCC1 (centres undefined) | 2.9 | -2.4
O=C(Nc1ccc(-c2cn3ccccc3n2)cc1)c1ccc(Cl)cc1 | 0.02 | 2.1
CC(=O)NC1C(O)OC(CO)C(O)C1O (centres undefined) | 0.05 | -0.67
CNC(=S)N1N=C(c2ccccc2)CC1c1ccc(Br)cc1 (centres undefined) | 0.08 | -0.38
Cc1cc(C)c2ccc(C(=O)O)nc2c1O | 0.38 | 1.1
Cc1oc(-c2cccc(Cl)c2)nc1CS(=O)(=O)CC(=O)NCCCN1CCOCC1 | 0.11 | -0.45
O=C(NNc1c(F)c(F)cc(F)c1F)c1cc2ccccc2oc1=O | 2 | -0.35
CN(Cc1ccccc1)C(=O)c1nc2ccccn2c1CNCCCOc1cccnc1 | 0.36 | -1.3
NNC(=O)Cn1nc2n(c1=O)-c1ccccc1SC2 | 0.01 | -0.33
CCOC(=O)C1CCN(C(=O)Cn2nc(C)n3c(cc4cc(F)ccc43)c2=O)CC1 | 4.7 | -1.1
Cc1cc(C(=O)Nc2ccc(Br)cc2)c2ccccc2n1 | 0.36 | -0.02
O=C(CSc1nccn(-c2ccc(Br)cc2)c1=O)NCc1ccccc1 | 1.9 | -0.78
CCCC(=O)Nc1ccc(Cl)c(NC(=O)CC)c1 | 0.06 | -0.01

Arranged by molecular weight (ascending): some entries from above
SMILES | KCNQ2 enhance | KCNQ2 enhance baseline
Cc1cc(C)c2ccc(C(=O)O)nc2c1O | 0.38 | 1.1
CC(=O)NC1C(O)OC(CO)C(O)C1O (centres undefined) | 0.05 | -0.67
CCCC(=O)Nc1ccc(Cl)c(NC(=O)CC)c1 | 0.06 | -0.01
CC(=O)Nc1ccc(Oc2cc(NC(C)=O)cc([N+](=O)[O-])c2)cc1 | 1.3 | -2.9
CN1CCN(C(=O)CCc2ncc(C(F)(F)F)cc2Cl)CC1 | 0.34 | 0.48
Cc1cc(C(=O)Nc2ccc(Br)cc2)c2ccccc2n1 | 0.36 | -0.02
CS(=O)(=O)N1CCN(c2ccccc2NC(=O)c2ccco2)CC1 | 1.5 | -0.03
O=C(NNc1c(F)c(F)cc(F)c1F)c1cc2ccccc2oc1=O | 2 | -0.35
COC(=O)c1ccc(CNS(=O)(=O)c2ccc3ccccc3c2)cc1 | 0.37 | -1.2
O=C(Cn1cnc2c(nnn2-c2cccc(Cl)c2)c1=O)N1CCCC1 | 0.03 | 2
COC(=O)CC1c2cc(OC)c(OC)cc2CC(=O)c2cc(OC)c(OC)cc21 (centres undefined) | 0.88 | 0.26
CCOC(=O)C1CCN(C(=O)Cn2nc(C)n3c(cc4cc(F)ccc43)c2=O)CC1 | 4.7 | -1.1
NC(=O)C1(N2CCCCC2)CCN(CC(=O)Nc2ccc(Oc3ccccc3)cc2)CC1 | 0.6 | 0.77
COc1ccc(OC)c(S(=O)(=O)N2CCCC(C(=O)NCCN3CCOCC3)C2)c1 (centres undefined) | 0.69 | -0.44

(listing goes on)
SMILES | KCNQ2 enhance | KCNQ2 enhance baseline
CC1CCN(CC(O)COc2ccc(OCC(O)CN3CCC(C)CC3)cc2)CC1 (centres undefined) | 0.32 | 2.1
Cc1nn(CC(=O)O)c(C)c1NC(=O)c1cccs1 | 0.74 | 1.9
CCOP(=O)(OCC)C(Nc1ccccc1)c1cccnc1 (centres undefined) | 0.05 | 3.8
CCOC(=O)c1c(CC(C)C)csc1NC(=O)c1ccccc1C(=O)O | 3.4 | -0.61
CC(=O)c1ccc(Cc2ccc(C(C)=O)cc2)cc1 | 0.02 | 1.4
Cc1onc(-c2ccccc2)c1C(=O)Oc1cccnc1 | 0.69 | 1.2
Cc1ccc(SCC(=O)NC2CC3CCC(C2)N3C)cc1 (centres undefined) | 0.96 | -1.2
CCCCOC(=O)C(C)Nc1n[nH]c(=S)[nH]c1=O (centres undefined) | 0.56 | 0.57
Cc1ccc(C)c(N=C2NC(=O)CS2)c1 | 2.4 | 0.77
COc1ccc(C(=O)C2CCCN(S(=O)(=O)c3cccnc3)C2)c(C)c1 (centres undefined) | 1.6 | 0.32

Screening data: PubChem, Johns Hopkins Ion Channel Center

A portion of the library. The share of hits here may be higher or lower than overall.
